CapD inh: Bacillus anthracis CapD inhibitors, primary screen, biochemical, fluorescence intensity | purified CapD enzyme, fluorescence intensity read-out; active compounds read low; some hits fall short of the stated cut | CapD gamma-glutamyltranspeptidase (Bacillus anthracis Ames Ancestor) | z-score (test concentration not listed) | AID 492967, 2010 | 140,000 tested, 0.23% active;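 active means z-score under -4 in either of two replicates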;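 further: stock transfer was 100 nL into about 40 µL; score is relative to mean and spread of the plate; one replicate is shown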
AID504770: growth inhibition of E. coli YBA685, primary screen, V. cholerae RctB inhibitors; E. coli YBA685 rctB-dependent plasmid, OD600 growth, 3 h; active compounds read low; z-score (concentration not given with the values); 130,000 tested, 0.27% active;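 active means z-score under -2 on both plates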;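 further: wells of about 30 µL received 100 nL stock; score is relative to mean and SD of the test wells; the first replicate is given; strong numbers were not always called active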
Active calls of the source: *; / = no result given.

Structure	AID504770	CapD inh
Cn1c(CNC(=O)c2ccccc2F)nnc1SCC(=O)N1N=C(c2ccc(Br)cc2)CC1c1ccc(F)cc1 (stereo not given)	/	-0.2
Cc1cc(C(=O)CSc2cc(C(=O)c3nccn3C)c3ccccc3n2)c(C)n1C1CC1	-1.1	/
CC1=C(C(=O)OCc2ccc(C)cc2)C(c2cccc(Oc3ccccc3)c2)NC(=O)N1 (stereo not given)	/	0.39
CCCSc1ncccc1C(=O)O	/	-0.11
Cc1ccc(C)n1-c1nnc(N2CCCC(C(=O)O)C2)s1 (stereo not given)	1.1	1.1
O=S1(=O)CC(c2ccc(Cl)cc2)CS(=O)(=O)C1	/	-0.89
CC(c1ccccc1)n1c(SCC(=O)c2ccc(F)cc2)n[nH]c1=O (stereo not given)	-0.55	-1.4
COc1ccc(C2OC(COc3ccc4c(C)cc(=O)oc4c3)=NN2C(C)=O)cc1 (stereo not given)	2.5	51
Cc1ccc(S(=O)(=O)N(C)CCO)cc1-c1nnc2c3ccccc3c(C)nn12	-1.2	/
COc1ccc(/C=C2\N=C(c3ccc(Cl)c([N+](=O)[O-])c3)OC2=O)c(OC)c1OC	/	-1.9
O=P1(N2CCOCC2)C=C(c2ccccc2)c2cc(Cl)ccc2O1 (stereo not given)	-1	/
CCCn1c2ccccc2n2c(C(=O)c3cccs3)c(C)nc12	-0.6	-2.2
COc1ccc(C(=O)N2CC(C)N(C(=O)c3ccc(OC)c(OC)c3)CC2C)cc1OC (stereo not given)	2.7	-1.3
O=C(/C=C/c1ccc(F)cc1)N(CCO)c1nc2ccccc2[nH]1	-1.1	/
CC(C)Cc1nc2ccccc2c(=O)n1-c1ccccc1	0	0.4
CC(=O)Nc1ccc(NC(=O)CSc2cccc[n+]2[O-])cc1	0.3	-0.34
CC1=C(C)SC(=C(C#N)c2nc(-c3ccccc3)cs2)S1	0.15	/
CC1(C)CC(=O)C2=C(C1)N(CCN1CCOCC1)C1=C(C(=O)CC(C)(C)C1)C2c1cccc(Cl)c1	-0.55	0.98
CCCn1nc(C(=O)Nc2ccc3nc(N4CCOCC4)sc3c2)ccc1=O	-0.5	/
O=C(CSc1nnc(Cc2ccccc2)o1)N(c1ccccc1)c1ccccc1	0.05	/
N#Cc1cccc(C(=O)O)c1	-0.8	-1.4
O=C(CCOc1ccccc1)NCc1ccco1	-0.6	0.14
CCOC(=O)C1SC2(C(F)F)CC1(O)c1c(c(OC)c3occc3c1OC)O2 (stereo not given)	-0.15	1
Cc1ccc(C(=O)[C@@H]2[C@@H](C(C)(C)C)C(C#N)(C#N)[C@@]3(C)C=Cc4ccccc4N23)cc1	0.35	38
COC(=O)Cc1c(C(=O)OC)sc(N)c1C#N	0.15	/
COc1ccc(N=C(N(C)C)P(=O)(N(C)C)N(C)C)cc1	0.85	/
Cc1cc(C(=O)NNC(=O)C2CCN(c3nccc(C(F)(F)F)n3)CC2)nn1C(C)(C)C	/	0.72
COc1ccc2cc3cc(C(=O)NCCN4CCOCC4)oc3nc2c1	-0.4	-0.28
COc1cc(C(=O)N(Cc2ccccc2)Cc2cc3ccc(C)cc3[nH]c2=O)cc(OC)c1OC	0.1	9.1
CC(=O)N1CCCn2c1nc1ccccc12	-2.3	/

Next part (4 carried over from the part before).
Structure	AID504770	CapD inh
Cc1cc(C(=O)NNC(=O)C2CCN(c3nccc(C(F)(F)F)n3)CC2)nn1C(C)(C)C	/	0.72
COc1ccc2cc3cc(C(=O)NCCN4CCOCC4)oc3nc2c1	-0.4	-0.28
COc1cc(C(=O)N(Cc2ccccc2)Cc2cc3ccc(C)cc3[nH]c2=O)cc(OC)c1OC	0.1	9.1
CC(=O)N1CCCn2c1nc1ccccc12	-2.3	/
CCCC1CC(=O)CC(=O)C1	0.1	/
COC(CNC(=O)c1ccc(CS(=O)(=O)Cc2cccc(C)c2)o1)OC	0.4	0.33
COCCn1c(NC(=S)NC(=O)C2CC2)cc(=O)[nH]c1=O	0.5	/
CCCN(CCC)C(=O)c1cc2ccccc2cc1O	-0.45	-0.12
O=C(O)Cc1csc(NC(=O)CSc2ccccc2)n1	1.5	0.08
O=C(NCCCn1ccnc1)c1cc2ccccc2o1	-1.5	0.075
COC(=O)c1cc(NC(=O)c2c(Cl)nc3sccn23)cc(C(=O)OC)c1	1.3	/
COc1ccc(Oc2cc(C(F)(F)F)nc3cc(C(C)(C)C)nn23)cc1	-0.3	1.8
Clc1ccc(C2=NN(c3ccccc3)C(c3cccs3)C2)cc1 (stereo not given)	/	81
O=C(O)COCC(=O)Nc1ccccc1SCc1noc(-c2cccs2)n1	2.9	-0.71
Cc1ccc(Cn2c(C)c3cnn(CC(=O)NCCCN4CCCCCC4)c(=O)c3c2C)cc1	-2.4	0.82
Cc1cc(C(=O)N2CCc3ccccc32)no1	-1.7	0.24
O=C(C1CC1)N1CCc2cc(Br)cc(S(=O)(=O)NCCCN3CCN(Cc4ccccc4)CC3)c21	2.8	-0.76
O=C1/C(=C/c2cccc(Br)c2)SC(=S)N1CC(=O)N(CCO)c1ccccc1	/	-0.35
CC12CCC(C(=O)Nc3ccc(Cl)cn3)(CC1=O)C2(C)C (stereo not given)	0.7	-0.39
N#C/C(=C\C=C\c1ccco1)c1nc(-c2ccccc2)cs1	1.1	-4.3*
CCOc1cc(/C=c2/sc3nc4ccccc4n3c2=O)ccc1OC	0.75	0.005
CN1C(=O)C(C(=O)O)C2CC1Oc1ccccc12 (stereo not given)	1.6	/
COCCN(C1CCN(C)CC1)S(=O)(=O)c1ccccc1	/	-0.41
N#Cc1ccc(CSc2nnc(-c3sc4ccccc4c3Cl)o2)cc1	1.6	/
CCn1c(CCNC(=O)c2ccco2)nc2ccccc21	0.9	0.38
COC(=O)CNC(=O)c1cn(-c2ccc(C)c(C)c2)c(=O)c2ccccc12	-0.35	-0.17
COc1ccc(OCC(=O)NC(C)CCc2ccccc2)cc1 (stereo not given)	-0.65	0.05
COc1ccc2c(=O)c(-c3ccc4c(c3)OCCO4)coc2c1	2.4	0.2
CC1=CC(=O)CC(C)(C)C1(O)/C=C/C(C)=C\C(=O)O (stereo not given)	-0.1	/
Cc1ccc(CNC(=O)CN2CCN(Cc3cccc(C)c3)C2=O)cc1	-0.65	-0.095
Nc1nnc(CCN2C(=O)S/C(=C/c3ccccc3)C2=O)s1	-0.55	-0.57
O=C1NC(=O)N(Cc2ccccc2)C(=O)/C1=C/c1ccc2c(c1)OCO2	1.3	/
O=C1c2ccccc2C(=O)N1CCSc1n[nH]c(=O)n1Cc1ccccc1	-0.05	/
O=C(COC(=O)c1cc(=O)c2ccccc2o1)c1ccc2[nH]c(=O)[nH]c2c1	-0.45	/

Single records, from the list above. Values in the order: AID504770	CapD inh
Entry for `Cc1ccc(CNC(=O)CN2CCN(Cc3cccc(C)c3)C2=O)cc1` = -0.65	-0.095
Entry for `Nc1nnc(CCN2C(=O)S/C(=C/c3ccccc3)C2=O)s1` = -0.55	-0.57
Entry for `O=C1NC(=O)N(Cc2ccccc2)C(=O)/C1=C/c1ccc2c(c1)OCO2` = 1.3	/
Entry for `O=C1c2ccccc2C(=O)N1CCSc1n[nH]c(=O)n1Cc1ccccc1` = -0.05	/
Entry for `CCOc1cc(/C=c2/sc3nc4ccccc4n3c2=O)ccc1OC` = 0.75	0.005

Continuation.
Structure	AID504770	CapD inh
COc1ccccc1OCCn1c(CO)nc2ccccc21	-0.45	-0.39
O=C(NCCCN1CCCC1)c1cc2c(s1)-c1ccccc1OC2	-0.35	-3.9
O=C(NCCN1CCOCC1)C1CCN(Cc2cc3cccc4c3n(c2=O)CCC4)CC1	/	5.8
O=C(Nc1nccs1)c1cccc(Cl)c1	-0.8	-0.99
O=C(c1cn(Cc2nc(-c3cccs3)no2)c2ccccc12)C(F)(F)F	1.8	0.055
CCN1CCc2c(sc(NC(=O)c3ccc4c(c3)CCCC4)c2C(N)=O)C1	-0.95	24
NNc1ccc2c(Cl)cc(Cl)c(O)c2n1	0.95	-1.9
O=C(COc1ccc(-c2nnco2)cc1)NC(=O)NCc1ccco1	-0.1	/
COC(=O)c1ccc(CSCC(=O)Nc2cc(OC)cc(OC)c2)o1	-0.15	/
O=C(NNC(=O)c1ccccc1-n1cccc1)OCC1COc2ccccc2O1 (stereo not given)	/	0.28
CCOc1cc(C2C(C(=O)OC)=CN(Cc3ccc(OC)cc3)C=C2C(=O)OC)cc([N+](=O)[O-])c1O	/	-0.46
Cn1c(=NC(=O)Cc2csc(-c3cccnc3)n2)sc2ccccc21	-1.1	/
CCc1ccc(OCC(O)CN2CCN(Cc3ccc4c(c3)OCO4)CC2)cc1 (stereo not given)	1.2	-0.54
Cc1n[nH]c(=S)n(/N=C/C2=CCC3CC2C3(C)C)c1=O (stereo not given)	2.3	/
CCOc1ccccc1NC(=O)C(NC1CCS(=O)(=O)C1)c1ccccc1 (stereo not given)	-0.15	/
CCSCCOC(=O)C1=C(C)NC(=O)NC1c1cc(Br)ccc1OC (stereo not given)	/	0.29
COc1ccc(C(=O)OCc2nc3ccccc3s2)cc1OC	2	-0.27
Cc1cc(C)nc(SCC(=O)OCCN2C(=O)c3ccccc3C2=O)n1	1.1	/
COc1ccc2[nH]c3c(=O)n(CC(=O)NCCc4ccc(OC)c(OC)c4)c(=S)[nH]c3c2c1	0.95	0.29
Cc1ccc(F)cc1S(=O)(=O)N1CCCC1C(N)=O (stereo not given)	/	0.42
COCCCNc1ncnc2onc(-c3ccc(Cl)cc3)c12	1.1	5.8
Nc1nc(-c2ccccc2)cc(=O)[nH]1	2	-0.07
N#Cc1c(SCC(=O)Nc2ccccc2)nsc1SCC(=O)Nc1ccccc1	-0.75	-1.1
Cc1ccc(NC(=O)COC(=O)COc2ccc(Cl)cc2)cc1C	-0.5	-0.9
COc1ccc(-c2cc(C3CCNCC3)[nH]n2)cc1	-1	-0.33
Cc1cc(C)c2c(c1)-c1c(sn(-c3ccc(Br)cc3)c1=S)C(C)(C)N2	/	1.4
O=C(NC12CC3CC(CC(C3)C1)C2)N1CCC(CN2CCCCC2)CC1	-0.9	-0.42
CCOC(=O)c1c(NC(=O)c2ccc(Cl)s2)sc(C)c1C	1.4	-0.12
COc1ccc(C(CC(=O)O)Sc2ncn[nH]2)cc1 (stereo not given)	0.45	0.52
C=NC(C(=O)NC1C(=O)N2C1SC(C)(C)C2C(=O)O)c1ccccc1 (stereo not given)	0.2	0.14
CC(=O)Nc1ccc(S(=O)(=O)NC(COC(C)(C)C)C(=O)OC(C)(C)C)cc1 (stereo not given)	/	-1.2
Cc1ccc2c(c1)-c1nc3[nH]c(=O)[nH]c(=O)c3cc1C(O)O2 (stereo not given)	0.25	/
CSc1nnc2c(n1)OC(c1ccc([N+](=O)[O-])o1)Nc1ccccc1-2 (stereo not given)	/	-2.4
O=C(NC(c1ccccc1)c1ccc(Cl)cc1)OCC1CC=CCC1 (stereo not given)	/	-0.66
Cc1ccccc1NC(=O)CN1C(=S)NC(C)(C)CC1C (stereo not given)	/	0.83
COC(=O)CSc1nc2cc3c(cc2cc1C#N)OCO3	0.45	/
COC(=O)c1ccc(S(=O)(=O)NCc2cccc(OC)c2)n1C	-1.6	-0.44
O=C(NC1CCN(S(=O)(=O)c2ccc(Cl)cc2)CC1)N1CCCC1	/	-0.75
N#Cc1ccsc1/N=C/c1ccccc1	-0.85	-0.005
Cc1nn(Cc2ccc(F)cc2)c(C)c1NC(=O)c1cnn2c1NC(c1ccco1)CC2C(F)(F)F (stereo not given)	0.6	-0.14
N#Cc1ccc(CN2C(=O)c3ccccc3C2=O)cc1	-0.4	/
COc1ccc(C2N=C(c3ccccc3C)NO2)cc1O (stereo not given)	0.65	/
CCOC(=O)N1CCC(Nc2cc(C)c(C#N)c3nc4ccccc4n23)CC1	0.15	/
CCCC1CCC(C(=O)n2nc(N)c3cc4ccc(OC)cc4nc32)CC1 (stereo not given)	1.5	-0.66
CC(C)CCn1c(CO)cnc1S(=O)(=O)C(C)C	1.2	0.59
Cc1cc(NC(=O)COC(Cc2ccccc2)C(F)(F)F)no1 (stereo not given)	-0.4	0.6
Cc1nc(N2CCN(C)CC2)c2c(C)c(C(=O)N3CCC(Cc4ccccc4)CC3)sc2n1	/	-0.51
CCOc1ccc(N=CC2=C(O)CNC2=O)cc1	-0.45	2
CCCCSc1ncn[nH]1	2.5	-0.6
CC1CCCCC1NC(=O)c1cc2c(s1)CS(=O)(=O)C2 (stereo not given)	-0.6	-0.4
O=C(O)/C=C/C(=O)NNc1nc2cc(S(=O)(=O)N3CCOCC3)ccc2o1	-0.2	/
CS(=O)(=O)c1ccc(Cl)c(NC(=O)c2cccnc2)c1	-1.1	-0.32
CC1CCCC(NC(=O)COC(=O)c2ccc3ccccc3n2)C1C (stereo not given)	-0.95	0.43

Screening data: PubChem BioAssay, ICCB-Longwood Screening Facility, Harvard Medical School

Not all compounds are listed; count on the stated rates, not on these rows.
